YopH inh: blocks Yersinia enterocolitica YopH tyrosine phosphatase; fluorescence Ex485/Em525; inhibition, %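 (about 10 µM by stock and volumes)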; 0.16% of 140,000 active;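 active means inhibition of 50% or more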;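 further: controls were vehicle for no effect and minimum signal wells for full effect; inactives centre near -20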
Mtb H37Rv: M. tuberculosis H37Rv growth inhibitors, H37Rv strain (AID 1626); one-dose inhibition, % at 10 µM; IC50 in µM for titrated hits; M. tuberculosis H37Rv growth inhibition; higher % means a stronger effect; 0.95% of 220,000 active;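 active means confirmed in a dose series; inconclusive means inhibition above 80% but not taken into the dose series; inactive means below 80% or under 30% at every dose of the series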;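 further: bacteria incubated seven days before Alamar blue readout; 0% = bacteria only wells and 100% = bacteria with antibiotic wells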
Mtb bLac sens: beta-lactam sensitization of Mtb H37Rv | M. tuberculosis H37Rv growth with meropenem, percent inhibition; hits of this screen are not shown here | inhibition, % at 25 µM | 0.27% of 330,000 active | AID 434955;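 active means about 74% or more and at least 40 points above the plate without the antibiotic, then above 30% in a dose series; inconclusive means first-round hits that could not be retested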;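 further: growth measured after seven days incubation then overnight dye step; 0% = bacteria only wells and 100% = bacteria with antibiotic; twin plates without the antibiotic show which effects depend on it; some results filed as inactive read as strong as hits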
RecA intein inh: blocks M. tuberculosis RecA intein splicing | AID 2221 | P9WHJ3 | cell-free RecA intein splicing, fluorescence | 0.75% of 290,000 active | inhibition, %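 (about 9 µM by stock and volumes)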; in the data active means inhibition above about 30%; inconclusive means no clear call, values can overlap the other calls;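 further: 0% = vehicle wells and 100% = reference inhibitor control wells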
Target sequence (P9WHJ3 whole entry, looked up): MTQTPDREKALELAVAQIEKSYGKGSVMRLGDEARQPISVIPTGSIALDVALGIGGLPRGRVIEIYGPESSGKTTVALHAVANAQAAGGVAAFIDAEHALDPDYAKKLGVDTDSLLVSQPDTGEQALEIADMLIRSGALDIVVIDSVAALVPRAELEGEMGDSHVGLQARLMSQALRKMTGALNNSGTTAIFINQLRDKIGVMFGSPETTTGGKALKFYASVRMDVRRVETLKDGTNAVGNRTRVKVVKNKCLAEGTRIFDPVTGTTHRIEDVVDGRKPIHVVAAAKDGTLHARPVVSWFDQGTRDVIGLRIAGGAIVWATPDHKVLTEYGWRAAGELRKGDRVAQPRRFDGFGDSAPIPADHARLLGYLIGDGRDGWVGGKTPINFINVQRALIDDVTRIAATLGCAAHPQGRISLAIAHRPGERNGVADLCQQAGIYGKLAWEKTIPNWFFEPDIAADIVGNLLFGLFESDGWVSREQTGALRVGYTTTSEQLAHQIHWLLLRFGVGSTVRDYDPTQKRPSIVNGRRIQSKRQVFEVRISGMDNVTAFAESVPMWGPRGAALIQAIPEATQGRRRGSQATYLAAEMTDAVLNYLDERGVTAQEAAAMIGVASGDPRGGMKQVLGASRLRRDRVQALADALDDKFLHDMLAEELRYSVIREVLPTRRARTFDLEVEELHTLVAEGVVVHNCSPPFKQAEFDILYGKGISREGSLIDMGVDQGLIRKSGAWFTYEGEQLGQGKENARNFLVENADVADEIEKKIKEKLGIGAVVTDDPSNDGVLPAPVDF
Arbovirus inh: blocks arbovirus infection; arbovirus infection cell-based antiviral screen; inhibition, % at 10 µM; 0.37% of 200,000 active; AID 1251;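 active means inhibition from about 30%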;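 further: bluetongue infection of BSR cells; cell survival read as ATP light after 72 h; 0% = infected wells without compound and 100% = uninfected wells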
Arbovirus inh repeat: further read-out of Arbovirus inh, marked with its call; inhibition, %; measured here: 10K subset replicate screen; many hits read low in the repeat;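 first of two repeat runs on a subset; 0% = infected and 100% = uninfected wells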
Active calls of the source: *; ? = inconclusive; nt = not tested or not shown.

SMILES	YopH inh	Mtb H37Rv	Mtb bLac sens	RecA intein inh	Arbovirus inh	others
CC(C)n1cnc2c(Nc3ccc(F)c(Cl)c3)nc(NCCO)nc21	nt	nt	54	-1.6	nt
FC(F)(F)c1ccc(Cl)c(NC(=S)N/N=C/c2ccccc2Cl)c1	nt	5%	-5	0.4	nt
O=C(C1=C[C@H](C2CCCCC2)C[C@H](OCc2ccc(CO)cc2)O1)N1CCOCC1	nt	-5%	-5	2.6	5
CCN(C(=O)c1ccc2c(SCC(=O)O)c3c(nc2c1)CCC3)c1cc(Cl)ccc1OC	nt	nt	?	2.9	nt
O=C(NNC1=NCCC1)c1cccc(S(=O)(=O)N2CCCCC2)c1	-37	-1%	7	4.0	5
COc1cc(C(=O)NC(=S)Nc2ccc(Cc3ccncc3)cc2)cc(OC)c1OC	nt	nt	88	-6.8	nt
Cc1noc(C)c1COc1ccc(CC(=O)NCCc2ccccc2)cc1	nt	0%	2	5.5	-4
O=C(O)C1CCCCC1C(=O)NCc1ccc(F)cc1 (centres undefined)	-36	-3%	-9	-2.7	5
Cc1nc(NC(C)c2ccccc2)sc1C(=O)Nc1ccccc1 (centres undefined)	nt	-2%	0	4.0	-7
CCOC(=O)c1sc(SC)c(C(C)=O)c1C	-20	5%	7	-0.2	2
COc1cc(NC(=O)c2ccco2)c(OC)cc1NC(=O)CSc1ncc(-c2ccc(F)cc2)[nH]1	-5	4%	4	-5.4	-10
O=C(CN1CCN(Cc2cccc3ccccc23)CC1)NCCc1ccccc1	nt	nt	-7	2.6	nt
Cc1nn(-c2ccccc2)cc1/C=N/NS(=O)(=O)c1ccccc1	-35	-1%	-7	0.9	6
O=C(Cn1ncc2c1-c1ccccc1OC2)N1CCN(Cc2ccccc2)CC1	nt	1%	-7	2.7	nt
Cc1ccc(C(C)C)c(OCC(=O)Nc2ccc3c(c2)nc(CCN2CCCCC2)n3C)c1	nt	nt	-12	3.2	nt
O=C(CSc1n[nH]c(-c2cccnc2)n1)Nc1ccc([N+](=O)[O-])cc1	nt	nt	-7	14	nt
O=C(CCC1CCCC1)NCCS(=O)(=O)N1CCN(c2ccc(F)cc2)CC1	nt	nt	-11	0.2	nt
CCCCOC(=O)c1ccc(NC(=O)c2nn(C)cc2Br)cc1	-18	12%	97	0.9	-17
CC(C)C(=O)Nc1ccc(C(=O)NNC(=O)c2ccco2)cc1	-21	-1%	-4	-1.4	1
CCOC(=O)C(O)(CC(=O)Nc1ccc(Cl)cc1Cl)C(F)(F)F (centres undefined)	20	-9%	-13	-2.2	-3
COc1cccc(NC(=O)CN(C)CC(=O)Nc2ccccc2-c2ccccc2)c1	nt	1%	3	0.2	26
CC1(C)CC(=O)C(C=NCC2CCN(C(=S)Nc3cccc(Cl)c3)CC2)=C(O)C1	nt	6%	-2	1.1	6
O=C(CCN1CCOCC1)Nc1ccc2c(c1)N(C(=O)CN1CCOCC1)c1ccccc1CC2	7	-11%	5	-2.7	5
CCOc1ccccc1NC(=S)N1CCN(c2ccc(O)cc2)CC1	nt	nt	2	-5.0	nt
COc1ccc(NC(=S)NNC(=O)c2ccccc2OC(F)F)cc1	1	3%	?	-1.0	-21
More compounds follow.
SMILES	YopH inh	Mtb H37Rv	Mtb bLac sens	RecA intein inh	Arbovirus inh	others
O=S(=O)(N/N=C/c1cccnc1)c1ccc(Cl)c(Cl)c1	nt	-1%	-4	1.4	nt
CCn1c(SCC(=O)N2CCCC2)nc2c1c(=O)n(C)c(=O)n2C	-17	-9%	-18	1.4	1
COc1cccc(CNC(C)C(=O)Nc2ccc3c(c2)OCCO3)c1 (centres undefined)	nt	10%	9	-0.1	0
COc1cccc2cc(-c3nnc(-c4ccccc4)o3)c(=O)oc12	nt	-2%	-1	nt	-4
Cc1ccnc(NC(=O)c2ccccc2NC(=O)c2ccccc2)c1	nt	nt	-1	3.0	nt
CCOC(=O)c1c(SCC(=O)Nc2nc(C)cs2)nc(=O)[nH]c1C	nt	nt	6	-3.0	nt
Cc1c(C(=O)N2CCC(C)CC2)oc2ccc3c(c12)C(O)CC1(CCCCC1)O3 (centres undefined)	nt	nt	2	-0.8	nt
COC(=O)NNC(=O)COc1ccc2ccccc2c1Br	8	2%	-5	2.3	7
C/C(=N\Nc1cccc(C(F)(F)F)c1)c1ccc(O)cc1	nt	?	89	nt	-20
Cc1ccc(SCCN2C(=O)NC(C)(C)C2=O)cc1	-37	-7%	-15	-1.1	2
CCOc1ccc(C(=O)NCC(=O)Nc2ncccc2C)cc1OCC	nt	nt	-17	-7.2	nt
Nc1ccccc1C(=O)N/N=C1\C2CN3CCN(C2)CC1(c1ccccc1)C3	-20	4%	-6	0.9	3
CCn1c(=NC(=O)CS(=O)(=O)c2ccccc2)sc2cccc(OC)c21	nt	nt	-2	-0.5	nt
Cn1c(NCc2c[nH]c3ccccc23)nc2ccccc21	-41	11%	-7	0.9	5
CC1CCN(S(=O)(=O)c2cccc(-c3nnc(-c4cccnc4)o3)c2)CC1	4	-10%	0	0.9	-6
CCOC(=O)c1ccccc1NC(=O)c1ccc(F)cc1	-7	9%	4	0.3	1
CC(C)(C)NS(=O)(=O)c1ccc(NC(=S)NC(=O)C2CC2)cc1	nt	nt	-4	0.7	nt
Cc1ccc2c(c1)N(C(=O)CCC(=O)NCCCN(C)Cc1ccccc1)CCO2	nt	nt	-8	0.2	nt
CC(=O)c1ccc(-n2c(CCC(=O)O)ccc2-c2ccc(Br)cc2)cc1	nt	nt	-1	0.6	nt
CCN(CC)c1c([N+](=O)[O-])c(=O)n(C)c2ccccc12	nt	7%	10	-1.9	2
CCOc1ccccc1-n1c(SCC(=O)N2CCOCC2)nc2ccccc2c1=O	nt	nt	-3	-0.7	nt
Cc1ccnc(NC(=O)CCC(=O)N(CC(=O)NCc2ccc(F)cc2)Cc2ccco2)c1	nt	nt	1	1.6	nt
COc1ccc(C)cc1NC(=O)C1CC1c1ccccc1 (centres undefined)	nt	nt	4	1.8	nt
COc1ccccc1NC(=O)NCCc1ccccc1	nt	nt	-6	0.0	nt
O=C(c1cccs1)C1CN2CCC1CC2 (centres undefined)	1	5%	33	2.4	-5	Arbovirus inh repeat=-2

The closing five records of the part above are carried over, then new ones follow:
SMILES	YopH inh	Mtb H37Rv	Mtb bLac sens	RecA intein inh	Arbovirus inh	others
CCOc1ccccc1-n1c(SCC(=O)N2CCOCC2)nc2ccccc2c1=O	nt	nt	-3	-0.7	nt
Cc1ccnc(NC(=O)CCC(=O)N(CC(=O)NCc2ccc(F)cc2)Cc2ccco2)c1	nt	nt	1	1.6	nt
COc1ccc(C)cc1NC(=O)C1CC1c1ccccc1 (centres undefined)	nt	nt	4	1.8	nt
COc1ccccc1NC(=O)NCCc1ccccc1	nt	nt	-6	0.0	nt
O=C(c1cccs1)C1CN2CCC1CC2 (centres undefined)	1	5%	33	2.4	-5	Arbovirus inh repeat=-2
Cc1nc(-c2ccccc2)nc2[nH]ccc(=O)c12	7	-2%	-6	-1.2	-4
Cc1ccc(CNC(=O)CCCOc2cc(=O)n(C)c3ccccc23)o1	9	-2%	-3	-4.4	18
CC(NC(=O)C1CC=CCC1C(=O)O)C1CC2CCC1C2 (centres undefined)	0	-10%	5	-1.4	4
COC(=O)Cc1ccc(N(Cc2ccccc2F)S(=O)(=O)c2ccc(Cl)cc2)cc1	-22	8%	17	nt	2
O=C(CCCc1ccccc1)N=C1SC2CS(=O)(=O)CC2N1c1ccccc1 (centres undefined)	nt	nt	1	0.0	nt
Cc1cc(-c2ccccc2)nc2oc(C(=O)NN)c(N)c12	nt	nt	-2	-63	nt
COc1ccc(C(=O)N/C(=C\c2cn(C)c3ccccc23)C(=O)N2CCN(C)CC2)cc1	nt	nt	-1	-7.6	nt
CC(=O)Oc1ccc2ccccc2c1C(NC(=O)Cc1ccccc1)c1ccccc1Cl (centres undefined)	-31	2%	4	1.0	-19
CCOC(=O)C(NC(=O)c1ccc(Cl)cc1Cl)(Nc1ccc(C)cc1)C(F)(F)F (centres undefined)	-25	nt	4	0.2	4
CC1=C(C(=O)OC(C)C)C(c2cccs2)n2ncnc2N1 (centres undefined)	-47	7%	-2	-3.2	7	Arbovirus inh repeat=4
O=C(CSc1nc2ccc(Cl)cc2[nH]1)NCCc1ccc(Cl)cc1	-14	7%	6	0.6	7
CSCC(C)N1CCC(n2nccc2NC(=O)CCCc2ccccc2)CC1 (centres undefined)	nt	nt	7	-0.2	nt
CC1(C)CC(c2nc(-c3ccc(Cl)cc3)cs2)CCS1 (centres undefined)	-5	28%	56	-1.0	-11
NC(=O)C1CCN(C(=O)CCSc2ccc(Cl)cc2)CC1	nt	-4%	6	1.3	9
COc1ccc(-n2c(SCC(=O)Nc3ccc4c(c3)OCO4)nc3c(c2=O)SCC3)cc1	0	1%	-4	8.3	-6	Arbovirus inh repeat=4
COc1cc2c(cc1OC)C(c1ccccc1N)=NCC2	nt	-2%	-2	1.9	nt
CCN(CC)C(=O)C1CC(=O)OC12CCCCC2 (centres undefined)	-62	-9%	2	1.8	0
Cc1ccc(C)c(N2CCN(C(=O)CCS(=O)(=O)c3ccc4c(c3)NC(=O)CO4)CC2)c1	nt	nt	6	1.2	nt
O=C1NNC(=O)C1c1ccccc1	nt	nt	-10	-2.7	nt
Cc1cccc2sc(NC(=O)CSc3cn[nH]n3)nc12	nt	nt	13	5.4	nt
CCN(Cc1ccncc1)C(=O)c1cc(COc2ccc(OC)cc2Cl)on1	nt	nt	?	3.5	nt
c1ccc2c(c1)CCN(c1nc3cc4c(cc3s1)OCCO4)C2	-28	2%	97	12	11
COc1ccc(C(=O)N2CCc3cc(OC)c(OC)cc3C2c2ccc(OC)c(OC)c2)cc1OC (centres undefined)	nt	nt	1	0.6	nt
CCOC(=O)c1c(-c2ccc(OC)cc2)csc1NC(=O)CNCc1ccco1	-22	8%	99	8.9	-16
S=c1[nH]nc(-c2ccc(Cl)cc2Cl)n1Cc1ccccc1	4	10%	8	2.3	4
O=C(Cn1cncn1)NCc1cccc(OC(F)F)c1	nt	-2%	-10	-0.5	-4
CCN(CC)CCN(C(=O)C1=COCCO1)c1nc2ccc(C)cc2s1	nt	nt	-14	-0.4	nt

Retrieved by structure from above, three records:
SMILES	YopH inh	Mtb H37Rv	Mtb bLac sens	RecA intein inh	Arbovirus inh	others
O=C(c1cccs1)C1CN2CCC1CC2 (centres undefined)	1	5%	33	2.4	-5	Arbovirus inh repeat=-2
COc1ccc(NC(=S)NNC(=O)c2ccccc2OC(F)F)cc1	1	3%	?	-1.0	-21
CCOC(=O)c1c(-c2ccc(OC)cc2)csc1NC(=O)CNCc1ccco1	-22	8%	99	8.9	-16

An excerpt (hit frequency here may not be typical).
